Mtb H37Rv – Confirmatory growth inhibition assay against Mycobacterium tuberculosis H37Rv, potency (AID 1949). most inactive calls were filed without a number and no value below 0 was filed. inhibition, % at 10 µg/mL; hits with a dose series show IC50 in µg/mL. 100,000 compounds, 1.6% hits;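 active means confirmed in a dose series; inconclusive means about 50% or more but not retested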;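 further: bacteria grown 7 days with compound before Alamar blue readout; 0% = untreated bacteria and 100% = reference antibiotic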
Active calls of the source: *; i = inactive; ? = inconclusive. Some of the compounds tested; rates above refer to the full screens.

SMILES	Mtb H37Rv
CCN(CC)c1ccc(NC(=O)Nc2ccc(C(C)=O)cc2)cc1	i
CC(C)(C)Cc1nnc(NC(=O)Cc2ccc([N+](=O)[O-])cc2)s1	i
CC(C)c1ccc(OCc2nnc(SCC(=O)Nc3nc4ccccc4s3)n2C)cc1	0%
COc1ccccc1NS(=O)(=O)c1cccc(Cl)c1	i
CC(C)(C)NS(=O)(=O)c1ccc(NC(=O)c2cccs2)cc1	4%
O=C(Nc1ccccc1Cl)N1CCN(c2ccccc2F)CC1	3%
CC(C)(C)C(=O)COc1ccc(NC(=O)c2ccccc2Cl)cc1	1%
CCCCC(=O)Nc1ccc(NC(=S)NC(=O)CC)cc1OC	48%
O=C(Oc1ccc(Cl)cc1C(=S)N1CCOCC1)c1ccccc1F	i
CCc1ccc(OCC(=O)NC(=S)Nc2cc(C(C)CC)ccc2O)cc1 (stereo unspecified)	1%
CC(Sc1nc(-c2ccccc2)cc(C(F)(F)F)n1)C(=O)Nc1c(Cl)cccc1Cl (stereo unspecified)	i
Cn1nnnc1SCC(=O)Nc1ccc2ccccc2c1	i
CC(C)C(=O)N1CCN(c2ccc(NC(=O)c3ccc(Br)o3)cc2Cl)CC1	?
CC(c1ccccc1)n1c(=S)[nH]c2cc(Cl)ccc21 (stereo unspecified)	0%
COC(=O)C1=C(C)N(C)C(=S)NC1c1ccc(OC)cc1OC (stereo unspecified)	0%
O=C(O)Cc1ccc(NC(=S)Nc2ccc3c(c2)OCO3)cc1	i
COc1ccc(S(=O)(=O)Nc2ccc(O)c(Sc3nc4ccccc4s3)c2)cc1[N+](=O)[O-]	i
CC(C)CC(=O)NCc1ccc(F)cc1	i
O=C(NCC(F)(F)F)Nc1ccncc1	i
O=C(O)c1cccc2c1NC(c1ccccc1F)C1C3CCC(C3)C21 (stereo unspecified)	i
CSc1ccccc1C(=O)N1CCOCC1	i
Cc1cccc(NC(=O)C(=O)NCc2cccnc2)c1	i
CN(c1ccc(C(=O)Nc2cccnc2)cc1)S(=O)(=O)c1ccccc1	i
Cc1sc2nc(SCC(=O)c3ccc4c(c3)OCCO4)n(-c3ccccc3)c(=O)c2c1C	2%
CCOc1ccc(N(C(C)C(=O)Nc2cccc([N+](=O)[O-])c2)S(C)(=O)=O)cc1 (stereo unspecified)	i
COc1ccccc1C(=O)NC1(C(F)(F)F)NC(=O)N(c2ccc(C)c(C)c2)C1=O (stereo unspecified)	i
COc1ccc(CN(C(=O)c2ccccc2F)C2CCS(=O)(=O)C2)cc1 (stereo unspecified)	i
CCCC(=O)NC(c1ccc(Cl)cc1)c1cc([N+](=O)[O-])c2cccnc2c1O (stereo unspecified)	0%
O=c1c2ccccc2cnn1CCOCCOc1ccccc1	i
CC1CCc2nc(NC(=O)C3CCCO3)sc2C1 (stereo unspecified)	i

Retrieved by structure from the list above, 3 records:
SMILES	Mtb H37Rv
O=c1c2ccccc2cnn1CCOCCOc1ccccc1	i
Cc1sc2nc(SCC(=O)c3ccc4c(c3)OCCO4)n(-c3ccccc3)c(=O)c2c1C	2%
Cc1cccc(NC(=O)C(=O)NCc2cccnc2)c1	i

Next part.
SMILES	Mtb H37Rv
O=C1CCCC2=C1C(c1ccc(C(F)(F)F)cc1)C1=C(N2)c2ccccc2C1=O (stereo unspecified)	6%
O=C(CN(Cc1c(F)cccc1Cl)S(=O)(=O)c1ccc(Cl)cc1)NC1CC1	i
COC(=O)c1ccc(OC(=O)COc2ccc(C)cc2Br)cc1	i
CC(Oc1ccc(Br)cc1)C(=O)N1CCN(c2ccccn2)CC1 (stereo unspecified)	1%
CC1(C)CC(NC(=S)Nc2ccc(Oc3ccccc3)cc2)CC(C)(C)N1	i
N#Cc1ccc(Cn2cc(C=O)c3ccccc32)cc1	2%
COc1ccccc1OCC(=O)Nc1cc(C)ccc1O	i
COCCSc1ccccc1C(=O)Nc1ccc(S(=O)(=O)N2CCCC2)cc1	i
COC(=O)COc1ccc(S(=O)(=O)NCc2ccc(OC)cc2)cc1C	i
CNC(=O)C(=O)NCC1(c2ccccc2)CCCC1	i

Overlap with the part before: 2 compounds; new compounds follow.
SMILES	Mtb H37Rv
COC(=O)COc1ccc(S(=O)(=O)NCc2ccc(OC)cc2)cc1C	i
CNC(=O)C(=O)NCC1(c2ccccc2)CCCC1	i
COc1ccc(Cl)cc1NC(=O)CSc1ncn[nH]1	i
COc1ccc(S(=O)(=O)N(C)CC(=O)Nc2ccc(NC(C)=O)cc2)cc1	2%
COCCCNC(=O)c1c(NC(=O)COc2ccc(OC)cc2)sc2c1CCCC2	41%
CCOC(=O)c1c(NC(=S)NC)sc2c1CCCC2	3%
COc1ccc(N2CCN(C(=O)c3ccc(S(=O)(=O)N4CCC(C)CC4)cc3)CC2)cc1	i
COc1cc(OC)c(C(=O)O/N=C(\N)c2ccncc2)cc1OC	i
COC(=O)c1ccccc1NC(=O)CNC(=O)c1ccco1	i
Fc1ccc(NC(=S)Nc2ccc(Cc3ccncc3)cc2)cc1Cl	48%
Cc1nnc2nc(-c3cccc(Cl)c3Cl)[nH]n12	i
COc1cc(N2CCCC2)ccc1C=O	i
N#Cc1ccc(C(=O)Nc2ccccc2N2CCCC2)c(F)c1	12%
CCC(=O)Nc1ccc(N2CCN(C(=O)c3ccccc3C)CC2)cc1	2%
Cc1cc(NC(=O)C23CCC(C)(c4nc5cc(Cl)c(Cl)cc5nc42)C3(C)C)no1 (stereo unspecified)	i
Cc1cc(=O)[nH]c(/N=C(/N)Nc2ccc3c(c2)OCCO3)n1	i
COc1ccccc1-n1c(-c2ccccc2F)n[nH]c1=S	i
CN(c1ccccc1)S(=O)(=O)c1cccc(C(=O)O)c1	i
CCc1cccc(C)c1NC(=O)CN(c1ccc(F)cc1)S(=O)(=O)c1ccccc1	i
CN1CCN(C(=S)c2ccc(O)cc2)CC1	i
COc1ccc(CSCC(=O)Nc2ccccc2Sc2ccccc2)cc1	i
CC(=O)c1ccc(NC(=O)NC(C)C23CC4CC(CC(C4)C2)C3)cc1 (stereo unspecified)	19µg/mL*

Reprinted from the part before: 4 compounds, followed by the next part.
SMILES	Mtb H37Rv
CCc1cccc(C)c1NC(=O)CN(c1ccc(F)cc1)S(=O)(=O)c1ccccc1	i
CN1CCN(C(=S)c2ccc(O)cc2)CC1	i
COc1ccc(CSCC(=O)Nc2ccccc2Sc2ccccc2)cc1	i
CC(=O)c1ccc(NC(=O)NC(C)C23CC4CC(CC(C4)C2)C3)cc1 (stereo unspecified)	19µg/mL*
O=C(Nc1ccc(F)cc1)C(Cc1ccccc1)N1C(=O)c2cc(Cl)c(Cl)cc2C1=O (stereo unspecified)	i
C=CCOc1nc(N(C)C)nc(N2CCCCC2)n1	i
COc1ccccc1C(=O)n1nc(-c2ccc(Cl)cc2)nc1N	i
O=C(NC(=S)NCCC1=CCCCC1)c1cccs1	i
CCC(C)NCCCCOc1ccc(C)cc1[N+](=O)[O-] (stereo unspecified)	i
COc1ccc(S(=O)(=O)N(C)CC(=O)Nc2cccc(C(F)(F)F)c2)cc1	i
O=C(Nc1sc2c(c1C(=O)N1CCOCC1)CCCC2)c1ccco1	i
Cc1c(C=O)c(C=O)c(C)n1Cc1ccccc1	?
O=c1oc2cc(OCc3c(F)cccc3F)ccc2c2ccccc12	0%
CN(Cc1ccccc1)C(=O)COc1ccc(F)cc1	i
CCc1ccc(NC(=O)CSC2CC(=O)N(c3cc(Cl)cc(Cl)c3)C2=O)cc1 (stereo unspecified)	i
COc1ccc(CCNC(=O)C23CCC(C)(C(=O)O2)C3(C)C)cc1OC (stereo unspecified)	2%
O=C(O)c1ccc(CN2C(=O)c3ccc(S(=O)(=O)c4ccc(C(=O)O)cc4)cc3C2=O)cc1	4%
CCCOc1ccc(NC(=O)CSCC(N)=O)cc1	i
COc1ccc(NC(=S)N2CCN(Cc3cccc(F)c3)CC2)c(OC)c1	i
CCc1ccccc1OCC(=O)Oc1ccc(Cl)cc1C	i
CCCCC(=O)Nc1ccc(N)cc1OC	i
COc1ccc(C(C#N)N2N=C(C)CC2c2ccccc2)cc1 (stereo unspecified)	8%
CCOc1c(Br)cc(C2NC(=O)CCC2[N+](=O)[O-])cc1OC (stereo unspecified)	i
CN1CCN(c2c(F)cc3[nH]c(=S)[nH]c3c2Br)CC1	i
COc1c(F)c(F)c(C(=O)Nc2ccc(NC(=O)Cc3ccccc3)cc2)c(F)c1F	0%
O=C(Nc1ccc(F)cc1F)c1ccc([N+](=O)[O-])cc1	5%
CC1CCCCN1C(=O)C1CCCN(S(=O)(=O)c2ccccc2)C1 (stereo unspecified)	i
CCn1c(CCNC(=O)C(C)C)nc2ccccc21	i
CCN(CC)CCNC(=O)C1c2ccccc2Oc2ccccc21	i
N#C/C(=C/c1ccc(OCc2ccccc2C#N)cc1)c1ccc(C(=O)O)cc1	i
CCN1CCN(C(=S)c2ccc(OCC(=O)Nc3ccc(OC)cc3)cc2)CC1	i
CCOCc1nnc(NC(=O)c2cc(-c3ccccc3)nc3ccccc23)s1	0%
CCCc1cc(=O)oc2c(C)c(OC(C(=O)OC)c3ccccc3)ccc12 (stereo unspecified)	i
CCN(C(=S)NC(=O)c1ccc(OC)c(I)c1)c1ccccc1	4%
Cc1ccc(OCCN2CCCCCC2)c(Cl)c1	i
Cc1cc(C)n(-c2cc(N3CCN(C(=O)c4cccc5ccccc45)CC3)ccc2[N+](=O)[O-])n1	2%
CCc1ccc(C(=O)NCc2cccs2)s1	6%
COc1ccc(N=C2SC(C(=O)N3CCN(c4ccc(F)cc4)CC3)CC(=O)N2C)cc1 (stereo unspecified)	i
CCOc1ccccc1C1CC(c2ccc(Cl)c(Cl)c2)Nc2nc(N)nn21 (stereo unspecified)	5%
CC(=O)c1ccc2c3c(cccc13)C(=O)N(CCCO)C2=O	i
Cc1ccc(S(=O)(=O)N(CC(=O)Nc2ccc(F)cc2F)Cc2ccccc2)cc1	4%
Cn1c(SCc2nc3ccccc3s2)nnc1-c1cccs1	i
COc1ccccc1N1CCN(C(=O)CN(c2ccccc2F)S(=O)(=O)c2ccc(C)cc2)CC1	1%
CCOC(=O)COc1ccc2c(=O)c(-c3ccc(OC)cc3)c(C)oc2c1	1.3µg/mL*
O=C(COc1ccc(F)cc1)N(c1ccccn1)C1CCCCC1	i
CC1CCN(c2ccccc2NC(=O)COc2ccc([N+](=O)[O-])cc2)CC1	i
CCOC(=O)C(=O)Nc1ccc(C(N)=O)cc1	i
NC(=O)CSc1nnc(-c2ccc(F)cc2)n1N	i
CC(C)(C)N(Cc1ccccc1)C(=O)CCc1ccccc1	2%
CCOC(=O)c1nc(Nc2ccccc2)c2ccccc2n1	i
CCCOc1ccc(C(O)CCNC(CC(=O)O)c2ccccc2)cc1 (stereo unspecified)	i
Cc1ccc(NC(=O)c2ccccc2Br)c([N+](=O)[O-])c1	i
CCNC(=S)NS(=O)(=O)c1ccccc1	i
COc1ccc(-c2nnc(SCC(=O)Nc3cccc(Cl)c3C)n2C)cc1	i

Next section.
SMILES	Mtb H37Rv
Cc1cc(Cl)ccc1OCC(O)CN1CCC(C)CC1 (stereo unspecified)	3%
Fc1ccc(NC(=S)NCc2ccc(-n3cccn3)cc2)c(F)c1	i
COc1cccc(S(=O)(=O)NCC(=O)N2CCCCC2C)c1 (stereo unspecified)	i
O=C(NC(=S)Nc1ccc(N2CCCC2)c(Cl)c1)c1cccc2ccccc12	i
O=C(CSc1nc2ccccc2s1)Nc1ncc(Cc2cccc(Cl)c2)s1	i
O=C(Nc1cc(Cl)c(Cl)cc1Cl)C1CCCO1 (stereo unspecified)	i
Cc1ccc(NC(=O)CSc2nnc(N)s2)cc1Cl	3%
Cc1ccc(C)c(N(CC(=O)Nc2ccccc2C(=O)NCc2ccco2)S(=O)(=O)c2ccccc2)c1	3%
COc1ccc(S(=O)(=O)Nc2ccc(F)c(Cl)c2)c(Cl)c1Cl	i
Cc1[nH]c2ccccc2c1C1CC(=O)NC1=O (stereo unspecified)	i

Nothing new here: entries from further up.
SMILES	Mtb H37Rv
CCN(CC)c1ccc(NC(=O)Nc2ccc(C(C)=O)cc2)cc1	i
CC(C)(C)Cc1nnc(NC(=O)Cc2ccc([N+](=O)[O-])cc2)s1	i
CC(C)c1ccc(OCc2nnc(SCC(=O)Nc3nc4ccccc4s3)n2C)cc1	0%
COc1ccccc1NS(=O)(=O)c1cccc(Cl)c1	i

More records follow:
SMILES	Mtb H37Rv
O=C(Nc1ccc(S(=O)(=O)N2CCCC2)cc1)c1ccc(Cl)cc1	i
CCCOc1ccc(NC(=O)C2CC(=O)N(Cc3ccccc3)C2)cc1 (stereo unspecified)	i
COC(=O)c1ccccc1NC(=O)CSc1nnc(-c2ccco2)n1C	1%
CC1=NCCN1S(=O)(=O)c1cccc([N+](=O)[O-])c1	i
Cc1cc2ccccc2n2c(SCC(=O)Nc3ccc(Cl)cc3)nnc12	i
CS(=O)(=O)N(CC(=O)Nc1ccc2c(c1)OCO2)c1ccc(Cl)cc1	i
Nn1c(COc2ccccc2)nnc1SC(F)F	i
Cc1ccc2nc(NC3=NCN(Cc4ccc5c(c4)OCO5)CN3)nc(C)c2c1	i
COc1ccc(C(=O)N2CCC(C(=O)Nc3ccc(Br)cc3)CC2)cc1	i
CC1=Nc2ccccc2/C1=C/c1c(O)n(-c2cc(C)cc(C)c2)c(=O)[nH]c1=O	0%
Cc1cc(C)c2c(=O)[nH]c(SCC(=O)c3ccc(F)c(C)c3)nc2n1	1%
CCOC(=O)C1=C(C)NC(=S)NC1c1cc(C(C)C)c(OC)cc1C (stereo unspecified)	i
O=C(Nc1ccc(Cl)cc1C(F)(F)F)c1ccccc1I	5%
COc1ccc(-c2nnn(CC(=O)Nc3ccccc3SC)n2)cc1	i
CC(=O)Oc1ccc2nc(-c3ccc4c(c3)C(=O)N(Cc3ccccc3)C4=O)oc(=O)c2c1	i
COc1ccc(S(=O)(=O)NCCN2CCOCC2)c(C)c1C	i

Screening data: PubChem, Southern Research Institute
